HCMV NEC inh = cytomegalovirus nuclear egress complex inhibition | AID 1918969 | inhibition, % (test concentration not listed) | HTRF UL50-UL53 interaction, normalized percent inhibition | hit rate 0.15% among 190,000;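 active = both replicates at 50% or more, plus weaker picks with an unusually low signal ratio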;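 note: stock transfer was 100 nL into about 20 µL; 0% = negative control wells and 100% = wells with untagged competitor protein; inactives centre near -12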
GIV Gai3 FP = blocks GIV peptide binding to rat Galpha-i3 | Galpha-i3/FITC-GIV peptide fluorescence polarization, 90 min; active compounds read low; scaled: aluminum fluoride 0%, vehicle 100% | percent of control (FP), % (no concentration beside the values) | hit rate 0.42% among 210,000 | AID 1224905;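 active = replicate mean at 85% of control or lower, very high polarization wells dropped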;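 note: wells of about 15 µL received 100 nL stock; the first replicate is given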
Target sequence (P08753 whole entry, looked up): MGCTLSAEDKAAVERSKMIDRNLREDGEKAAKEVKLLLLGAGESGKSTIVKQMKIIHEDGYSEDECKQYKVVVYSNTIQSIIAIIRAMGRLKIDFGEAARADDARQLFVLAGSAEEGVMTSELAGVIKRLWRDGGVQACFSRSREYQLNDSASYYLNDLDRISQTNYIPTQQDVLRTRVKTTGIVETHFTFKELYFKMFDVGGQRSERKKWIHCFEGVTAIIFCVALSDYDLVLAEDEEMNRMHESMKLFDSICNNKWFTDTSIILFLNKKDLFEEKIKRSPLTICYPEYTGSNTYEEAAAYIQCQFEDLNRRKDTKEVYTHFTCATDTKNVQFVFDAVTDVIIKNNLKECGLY
Sa growth 42C = S. aureus growth inhibition; S. aureus RN4220 growth, OD600, 20 h, 42 °C; active compounds read low; relative growth, % (test concentration not listed); hit rate 0.53% among 170,000;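 active = growth at 42 °C up to 50% and 20 or more points under that at 30 °C, or under 10% at both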;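 note: 300 nL library stock went into each well; scaled to the means of positive and negative controls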
Sa growth 42C second temp = second read-out of Sa growth 42C, no call of its own (marks repeat the call); relative growth, %; measured here: growth at 30 °C;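 optical density after 20 h as mean of two plates; 100% = untreated growth and lower means inhibition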
Starred values were filed as active, the others as inactive; x = no result given.

SMILES	HCMV NEC inh	GIV Gai3 FP	Sa growth 42C	Sa growth 42C second temp
CCN(CC)S(=O)(=O)c1c[nH]c(=O)[nH]c1=O	-22	107	x	x
CCN(CC)C(=S)SCc1cccs1	-15	99	101	77
Cc1cccc(NC(=O)CSc2ncc(-c3ccc(Br)cc3)[nH]2)c1	8	104	110	100
COc1cc(OC)c(NS(=O)(=O)c2cc(-c3cnc(C)o3)ccc2OC)cc1Cl	x	104	86	62
O=C1CC2(CCCC2)C(=O)N1c1ccc(S(=O)(=O)NC2CCCCC2)cc1Cl	x	102	99	86
CN(CCc1noc(COc2ccccc2F)n1)C(=O)COc1ccc(F)cc1	-14	105	x	x
CCOc1ccc(NC(=O)C2CCC(N3C(=O)C4CC=CCC4C3=O)CC2)cc1 (configuration not stated)	-12	97	97	106
COc1ccc(C(=O)NC(=O)CSc2nnc(CN3CCCCCC3=O)n2-c2ccccn2)cc1	1	x	85	98
Cc1ccc(NC(=O)c2cc3cc(Br)ccc3oc2=O)c([N+](=O)[O-])c1	-19	108	x	x
Cc1cccn2cc(CNS(=O)(=O)c3ccccc3F)nc12	-35	102	91	80
O=C(O)CCC(=O)NC(c1ccccc1)c1ccccc1	-27	102	88	77
NS(=O)(=O)c1ccc(N2C(=O)C3CC=CCC3C2=O)cc1 (configuration not stated)	x	103	114	84
CCOC(=O)C1CCC(CN(Cc2ccc(OC)cc2)S(=O)(=O)c2ccc(F)c(C(=O)Nc3ccc(C)c(C)c3)c2)CC1 (configuration not stated)	x	104	104	88
CCOC(=O)c1noc2ncnc(Nc3cccc(OC)c3)c12	x	98	87	99
COc1ccccc1C1CC(=O)N2CN(C3CCCCC3)CSC2=C1C#N (configuration not stated)	x	104	104	87
N#CCOc1ccc2nonc2c1	-7	108	98	88
O=c1[nH]c(SCc2ccccc2Cl)nc2c1cnn2-c1ccccc1	x	97	108	76
CC(C)S(=O)(=O)c1cnc(C(F)(F)F)nc1N	4	97	103	105
COc1ccc(CNC(=O)c2ccc(CS(=O)Cc3ccccc3Cl)o2)cc1 (configuration not stated)	x	106	108	96
O=S(=O)(c1ccc(O)c(N=Cc2ccccc2O)c1)C(F)(F)F	-12	x	71	70
CS(=O)(=O)N(CCc1ccccc1)CC(=O)N1CCOCC1	14	105	101	94
Cc1ccc(NC(=O)C(=O)NCC(c2cccnc2)N2CCN(Cc3ccccc3)CC2)cc1 (configuration not stated)	-16	106	118	86
CCc1ccc(-n2nc(C)c3c(C)cc(=O)n(CC(=O)Nc4ccc(OC)c(OC)c4)c32)cc1	x	96	85	89
Cc1cc(-c2ccccc2)[o+]c(-c2ccccc2)c1	2	103	108	95
Cn1cc(CC(=O)NCC2CCCO2)c2ccccc21 (configuration not stated)	0	98	101	89
CC(C)(C)c1ccc(NC(=O)CN2CCOCC2)c(NC(=O)c2ccco2)c1	-29	107	92	84
O=S(=O)(c1cc(Cl)cc(Cl)c1)N1CCN(S(=O)(=O)c2cccs2)CC1	-6	108	91	91
O=C(NCCS(=O)(=O)N1CCN(c2ccccc2)CC1)C1CC(=O)N(c2ccccc2)C1 (configuration not stated)	x	107	95	94
CCOC(=O)C1CCN(C(=O)c2cc3c(=O)n(C)c4cc(Cl)ccc4c3s2)CC1	20	105	x	x
COC(=O)C1=C(C)N(CCc2ccc(OC)c(OC)c2)C(=O)/C1=C\c1ccc(N(C)C)cc1	-11	94	94	92

Arranged by length of the SMILES (smallest number first): 4 of the compounds above.
SMILES	HCMV NEC inh	GIV Gai3 FP	Sa growth 42C	Sa growth 42C second temp
Cn1cc(CC(=O)NCC2CCCO2)c2ccccc21 (configuration not stated)	0	98	101	89
Cc1cc(-c2ccccc2)[o+]c(-c2ccccc2)c1	2	103	108	95
O=c1[nH]c(SCc2ccccc2Cl)nc2c1cnn2-c1ccccc1	x	97	108	76
O=S(=O)(c1cc(Cl)cc(Cl)c1)N1CCN(S(=O)(=O)c2cccs2)CC1	-6	108	91	91

Later entries.
SMILES	HCMV NEC inh	GIV Gai3 FP	Sa growth 42C	Sa growth 42C second temp
O=C1COc2ccc(S(=O)(=O)N3CCCC(C(=O)NC4CCCCC4)C3)cc2N1 (configuration not stated)	-14	106	x	x
COc1ccc(-c2cc(C(=O)Nc3c(C)n(C)n(-c4ccccc4)c3=O)no2)cc1	4	100	108	96
Cc1ccc(NC(=O)CSc2nccn2C)cc1	-2	101	86	87
CSc1ccc(C2c3c(oc4cc(C)cc(C)c4c3=O)C(=O)N2Cc2ccco2)cc1 (configuration not stated)	-21	98	107	89
N#Cc1c(NC(=O)c2ccc(Cn3cc(Br)cn3)o2)sc2c1CCCCCC2	0	106	107	87
Cc1ccc2c(c1)N(CC(=O)c1ccc(F)cc1)C=NS2(=O)=O	-24	99	106	100
NC(=O)COc1ncnc2ccccc12	-6	x	93	88
CC1CC(=O)Nc2ccccc2N1C(=O)COc1ccccc1Br (configuration not stated)	6	x	113	102
CC(C(=O)Nc1cccc(C#N)c1)N(C)Cc1ccc(Cl)cc1 (configuration not stated)	-9	x	89	58
CCOc1cccc2c1N[C@@H](c1ccc(C(=O)O)cc1)[C@H]1CC=C[C@@H]21	-35	107	104	77
CCN(CC)C(=O)CSc1nc(N)c2c3c(sc2n1)COC(C)(CC)C3 (configuration not stated)	-6	101	95	85
CC(NC(=O)CCCn1c(=O)[nH]c2ccsc2c1=O)C12CC3CC(CC(C3)C1)C2 (configuration not stated)	x	106	101	93
CCS(=O)(=O)c1ncc(Cl)c(C(=O)Nc2sc3c(c2C(=O)NC)CCCC3)n1	3	102	x	x
CSc1nc2sc3c(c2c(=O)n1-c1ccccc1)CC(C(C)C)OC3 (configuration not stated)	0	105	97	96
CCCCC1CCC(C(=O)NCc2csc(-c3ccc(OC)cc3)n2)CC1 (configuration not stated)	-9	99	x	x
Cn1c(-c2ccc(Cl)cc2)[n+](C)c2ccccc21	10	x	83	90
CCc1nc(-c2cc(S(=O)(=O)N3CCCC(C(=O)NC4CC4)C3)c(C)s2)no1 (configuration not stated)	-15	110	x	x
Nc1nnc(CCCCn2c(-c3nonc3N)nc3ccccc32)s1	-11	107	130	102
COc1ccccc1CNC(=O)N(C)C	2	105	114	106
CCSC1=NCN(Cc2cccs2)CN1	26	96	79	92
C(=N\N(Cc1ccccc1)Cc1ccccc1)/c1ccco1	-13	96	96	93
Cc1ccc(C)c(N2CCN(S(=O)(=O)c3ccc4c(c3)CCN4C(=O)CCC(=O)O)CC2)c1	x	104	112	104
O=CN1N=C(c2ccccc2)CC1c1ccccc1 (configuration not stated)	-19	97	108	104
O=C(O)c1ccc(COc2ccccc2)cc1	-15	x	92	91
O=C(O)/C(=C/C(=O)c1ccccc1)Nc1ccc(OC(F)(F)F)cc1	-33	x	86	63
CCc1ccc(OCC(=O)N(Cc2cccs2)c2ccc(Cl)cc2)cc1	-20	101	94	84
N#Cc1ccccc1NC(=O)CN1CCNC(=O)C1	-39	x	94	95
Cc1cccc(Cc2c(C)[nH]c(=O)c(C#N)c2C)c1	0	101	100	87
COc1cc(NC(=O)C(C)Oc2cc(C(F)(F)F)c3c(C)nn(C)c3n2)cc(OC)c1 (configuration not stated)	-23	111	x	x
O=C(Nc1c(C(=O)c2ccccc2)oc2ccccc12)c1cc(=O)c2ccccc2o1	-19	104	101	90
Cc1cccc(OCCCSc2nc(-c3ccc(C(C)(C)C)cc3)nc3cc(=O)[nH]n23)c1C	x	100	88	73
CCOC(=O)c1c(N)sc(C(O)(C(F)(F)F)C(F)(F)F)c1-c1ccc(Cl)cc1	-36	x	62	8
CCc1ccc(OCC(=O)NC(Cc2c[nH]c3ccccc23)C(=O)O)cc1 (configuration not stated)	-29	102	101	85
Nc1sc2ccccc2[n+]1CC(=O)c1ccccc1	-23	x	77	52
CCOC(=O)c1cc(-c2ccc(OC)cc2)n(CCC(=O)Nc2nc3ccc(OCC)cc3s2)c1C	x	100	131	85
Cc1ccc(CNC(=O)CCS(=O)(=O)c2cc3c4c(c2)CCN4C(=O)CC3)cc1	x	101	95	90
C=C(C)C1Cc2c(C)nn(S(=O)(=O)c3ccc(C)cc3)c2C1 (configuration not stated)	-7	98	101	78
CS(=O)(=O)c1ccccc1-c1nnc(NC(=O)c2cccc(N3C(=O)CCC3=O)c2)o1	-17	104	98	94
COc1ccc(C2=CC(c3ccc(C)cc3)n3ncc(C(=O)Nc4ccccc4)c3N2)cc1 (configuration not stated)	-5	104	x	x
O=S(=O)(c1ccc(Cl)cc1)c1ccccn1	-14	x	91	86
Cc1ccc2[nH]c(O)c(N=O)c2c1	-74	x	63	83
O=C(CSc1n[nH]c(-c2ccco2)n1)N1c2ccccc2Sc2ccccc21	-4	97	103	93
Cc1cc2c(cc3n2CC(C)(C(=O)NC2CCCCC2)N(CCN(C)C2CCCCC2)C3=O)o1 (configuration not stated)	-15	97	x	x
CCOC(=O)/C(=N/O)C1=NC2(C)CCCCC2c2ccccc21 (configuration not stated)	-22	x	80	100
COc1ccccc1CNc1ccc(-c2nc(C)no2)cc1[N+](=O)[O-]	-26	100	93	82
Cc1nc2cccnc2n1-c1cc(C(=O)NC2CC2)ccc1Cl	-2	105	x	x
COc1cccc(CN(C(=O)c2oc3ccccc3c2C)C2CCS(=O)(=O)C2)c1 (configuration not stated)	-9	103	116	77
O=S(=O)(c1ccccc1)c1ccc(-c2ccn[nH]2)cc1	10	108	97	96
COC(=O)c1ccc(N2C(=O)C3ON(c4ccccc4)C(c4ccc(OC)cc4OC)C3C2=O)cc1 (configuration not stated)	7	108	93	91
CCOc1ccc(NC(=O)CSC2=Nc3ccccc3C3=NC(CCC(=O)NCc4ccco4)C(=O)N23)cc1 (configuration not stated)	x	104	86	89
CN(C)S(=O)(=O)c1ccc2c(c1)nc(C(F)(F)F)n2CCC(=O)Nc1ccc(Cl)cc1	-5	103	x	x
CCCCCC[N+]1(CCO)CCOCC1	-27	101	115	95
CCC(=Nc1ccccc1)C1=C(O)CCCC1=O	-23	x	111	88
Cc1ccc(N2CCn3c2nc2c3c(=O)n(CCCc3ccccc3)c(=O)n2C)cc1	x	96	104	94
Cc1ccc(NC(=O)c2ccc(NC(=O)CCS(=O)(=O)c3cccs3)cc2)cc1F	-12	106	96	92
CCOc1ccc(N2CC(C)Cn3c2nc2c3c(=O)n(Cc3c(F)cccc3Cl)c(=O)n2C)cc1 (configuration not stated)	6	100	102	93
COc1ccc(N2CCN(CC(O)COc3ccc(C(C)C)c(C)c3)CC2)cc1 (configuration not stated)	-18	110	104	85
CNc1nc2[nH]c(=O)cc(O)c2s1	-22	104	87	78
CCOC(=O)c1sc(NC(=O)c2cc3ccccc3oc2=O)c(C(=O)OCC)c1C	-9	103	x	x
Cc1cccc(CC(=O)NC2CC(=O)N(c3cccc(F)c3)C2)c1 (configuration not stated)	x	100	103	80

A different layout for four compounds above:
> O=S(=O)(c1ccccc1)c1ccc(-c2ccn[nH]2)cc1
- HCMV NEC inh: 10
- GIV Gai3 FP: 108
- Sa growth 42C: 97
- Sa growth 42C second temp: 96

> COC(=O)c1ccc(N2C(=O)C3ON(c4ccccc4)C(c4ccc(OC)cc4OC)C3C2=O)cc1 (configuration not stated)
- HCMV NEC inh: 7
- GIV Gai3 FP: 108
- Sa growth 42C: 93
- Sa growth 42C second temp: 91

> CCOc1ccc(NC(=O)CSC2=Nc3ccccc3C3=NC(CCC(=O)NCc4ccco4)C(=O)N23)cc1 (configuration not stated)
- HCMV NEC inh: x
- GIV Gai3 FP: 104
- Sa growth 42C: 86
- Sa growth 42C second temp: 89

> CN(C)S(=O)(=O)c1ccc2c(c1)nc(C(F)(F)F)n2CCC(=O)Nc1ccc(Cl)cc1
- HCMV NEC inh: -5
- GIV Gai3 FP: 103
- Sa growth 42C: x
- Sa growth 42C second temp: x

Carrying on:
SMILES	HCMV NEC inh	GIV Gai3 FP	Sa growth 42C	Sa growth 42C second temp
Cn1c(C(=O)NCCc2c[nH]c3ccccc23)cc2sccc21	-27	105	x	x
Nc1ccccc1C(=O)NC1CCCCNC1=O (configuration not stated)	-8	98	101	96
Nc1cc(=O)[nH]c(SCC(=O)Nc2ccc(S(=O)(=O)N3CCCC3)cc2)n1	1	x	75	93
Cn1c(CCC(=O)OCC(=O)N2CCN(S(=O)(=O)c3ccc(Cl)cc3)CC2)nc(=O)c2ccccc21	-23	x	76	87
Cc1cc(N/C=C2/CCCCC2=O)no1	-22	x	111	96
COc1ccc(C(=O)Nc2ccc(S(=O)(=O)N3CCCCC3c3cccnc3)cc2)cc1OC (configuration not stated)	-4	102	102	99
COc1ccc(-c2nc(N)n(C(=O)CCc3ccccc3)n2)cc1	x	101	115	88
O=C(c1cnc2n(c1=O)CCS2)N(C1CCCCC1)C1CCCCC1	-30	103	87	77
COc1ccccc1CNS(=O)(=O)c1c(C(=O)N2CCC(C)CC2)c(C)n(C)c1C	x	100	82	91
Cc1ccc(CNS(=O)(=O)c2cc3c4c(c2)CCN4C(=O)CC3)cc1	-7	105	x	x
C=CCOc1ccc(C2CC(=O)Nc3n[nH]c(C)c32)cc1 (configuration not stated)	-5	103	x	x
COc1ccc(CCNC(=O)CSc2nc3nc(C)c(Cc4ccc(C)cc4)c(C)n3n2)cc1OC	x	98	86	90
